# High-throughput results: PubChem BioAssay, National Center for Advancing Translational Sciences (NCATS)
# Cruzain inh noDet: qHTS Assay for Promiscuous and Specific Inhibitors of Cruzain (without detergent); Cruzipain (Trypanosoma cruzi), P25779; purified cruzain, Z-FR-AMC fluorescence, no detergent; Potency, µM, without a hit: max response, negative = inhibition, most hits filed as inhibitors; hit rate 2.3% among 200,000; active = well fitted curve in the direction sought with a large enough effect; inconclusive = small, poorly fitted or top-dose-only effect, or another doubt; inactive = no such curve, though single readings can be large; an effect the other way counts as inactive or inconclusive;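 also: plate controls were enzyme without inhibitor for no effect and buffer without enzyme for full effect; nearly all actives have a fitted effect of over 40% in size; top concentration of the series not given in the record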
# Target sequence (P25779 123-467 limits assumed): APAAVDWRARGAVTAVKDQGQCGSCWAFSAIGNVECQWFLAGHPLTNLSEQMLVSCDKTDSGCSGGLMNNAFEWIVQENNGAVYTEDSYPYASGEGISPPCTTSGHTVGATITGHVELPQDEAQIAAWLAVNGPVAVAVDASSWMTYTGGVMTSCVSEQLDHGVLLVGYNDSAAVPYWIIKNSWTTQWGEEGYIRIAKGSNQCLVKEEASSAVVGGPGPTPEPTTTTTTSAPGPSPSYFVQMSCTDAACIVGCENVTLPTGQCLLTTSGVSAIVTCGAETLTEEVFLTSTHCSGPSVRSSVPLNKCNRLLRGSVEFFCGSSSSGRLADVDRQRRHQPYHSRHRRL
#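 Detergent-free condition (0.00005% Triton X-100) in acetate buffer pH 5.5 with DTT. 1.5 nM enzyme and compound were pre-mixed 15 min, then 2 uM Z-FR-AMC substrate added; reaction progress from fluorescence change between first and third reads (60 s).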
# NS1 function inh: qHTS Assay for Inhibitors of Influenza NS1 Protein Function | Potency, µM (top dose mostly 46.1 µM), for inactives: top-dose activity, positive = more growth | S. cerevisiae slowed by influenza A NS1, growth recovery by OD600 | AID 2326, 2010 | hit rate 0.4% among 270,000; also: actives are rising curves; nearly all actives have a fitted effect of over 50% in size
#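 Growth recovery, yeast-based: influenza A NS1 expressed in S. cerevisiae causes slow growth, and suppressors are detected by OD600. The parent strain without NS1 is used as positive control.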
# MARV entry inh: qHTS for inhibitors of binding or entry into cells for Marburg Virus; Marburg virus pseudotyped entry inhibition, cell reporter; control for the full effect not named in the record; about a third of the inactives were read at about 46 µM; hit rate 1.8% among 300,000; Potency, µM (highest dose often 37.8 µM), for inactives: at the top dose activity change, negative = inhibition, actives largely listed as inhibitors; active = well fitted inhibition curve with a large enough effect; inconclusive = small, poorly fitted or top-dose-only effect, or effect the other way; inactive = flat fitted curve, though single readings scatter; tested in HEK293 cells; about a fifth of its hits are not listed in these tables; also: % is scaled to controls: 0 for no effect and ±100 for the full control effect; luciferase read-out
# Cruzain Triton: qHTS Assay for Promiscuous and Specific Inhibitors of Cruzain (with detergent) | Cruzipain (Trypanosoma cruzi), P25779 | purified cruzain, Z-FR-AMC fluorescence, 0.01% Triton | Potency, µM, without a hit: max response, negative = inhibition, most hits filed as inhibitors | hit rate 0.43% among 200,000; active = well fitted curve in the direction sought with a large enough effect; inconclusive = small, poorly fitted or top-dose-only effect, or another doubt; inactive = no such curve, though single readings can be large; an effect the other way counts as inactive or inconclusive;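 also: plate controls were neutral wells for no effect and buffer without enzyme for full effect; nearly all actives have a fitted effect of over 40% in size; top concentration of the series not given in the record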
#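 Z-FR-AMC hydrolysis (2 uM substrate) by cruzain (1.5 nM) monitored kinetically at ex 360/em 450 nm after 15 min room-temperature compound exposure; 0.01% Triton X-100, pH 5.5, 5 mM DTT.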
# Lassa entry inh: qHTS for Inhibitors of binding or entry into cells for Lassa Virus; Lassa virus pseudotype entry inhibition, cell reporter; control for the full effect not named in the record; hit rate 1.2% among 300,000; Potency, µM (series often up to 37.9 µM), for the others: at the top dose activity change, negative = inhibition, actives largely listed as inhibitors; active means well fitted inhibition curve with a large enough effect; inconclusive means small, poorly fitted or top-dose-only effect, or effect the other way; inactive means flat fitted curve, though single readings scatter; tested in HEK293 cells; also: % is scaled to controls: 0 for no effect and ±100 for the full control effect; nearly all actives have a fitted effect of over 50% in size; luciferase read-out
# SARS PLP yeast: qHTS of Yeast-based Assay for SARS-CoV PLP; Potency, µM (highest dose often 32.9 µM), for inactives: at the top dose activity, positive = growth rescue; hit rate 0.19% among 330,000; S. cerevisiae expressing SARS-CoV PLpro, growth rescue; control for the full effect not named in the record; also: 0% is about no effect; nearly all actives have a fitted effect of over 55% in size; growth read by luminescence after 48 h
# RE007 growth inh: qHTS Assay for Inhibitors of the HIV-1 protein Vpr; AID 651644, 2012; S. pombe RE007 Vpr strain, BacTiter-Glo ATP luminescence, 24 h; control for the full effect not named in the record; hit rate 0.21% among 360,000; Potency, µM (top dose mostly 92.2 µM), without a hit: top-dose activity change, negative = less growth; active = well fitted falling curve with a large enough effect; inconclusive = small, poorly fitted or top-dose-only effect; inactive = no such curve, though single readings can be large or run the other way;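 also: % is scaled to controls: 0 for no effect and ±100 for the full control effect; nearly all actives have a fitted effect of over 50% in size; the assay follows cell death caused by Vpr and the record does not say whether a fall means rescue or toxicity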
#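 Fission yeast RE007 carrying one integrated HIV-1 vpr copy, seeded at OD 0.01 in PMG+AL medium with 23 nL pinned compound. Grown 24 h at 30 degrees; viability read by BacTiter-Glo luminescence after 5 min.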
# StopGo reporter: High Throughput Screening for Foot and Mouth Disease Virus Antivirals | human cells with a luciferase reporter of 2A StopGo recoding; control for the full effect not named in the record | Potency, µM (highest dose often 57.9 µM), for the others: at the highest dose signal change, negative = less light | hit rate 1.2% among 410,000 | AID 1159524, 2015; active = well fitted falling curve with a large enough effect; inconclusive = small, poorly fitted or top-dose-only effect; inactive = no such curve, though single readings can be large or run the other way; tested in HEK293T cells; also: % is scaled to controls: 0 for no effect and ±100 for the full control effect; nearly all actives have a fitted effect of over 45% in size; luciferase light after 4 h
# An asterisk follows results filed as active; u = inconclusive; x = not tested or not shown; [ ] = another dose, or the depositor's remark. Unless noted, calls follow the shape of the dose curve; as a rule, active means well fitted rising curve with a large enough effect; inconclusive means small, poorly fitted or top-dose-only effect; inactive means no such curve, though single readings can be large or run the other way. Potency is read from the fitted curve at half-maximal effect.
SMILES,Cruzain inh noDet,NS1 function inh,MARV entry inh,Cruzain Triton,Lassa entry inh,SARS PLP yeast,RE007 growth inh,StopGo reporter
O=C(c1cc2cc(Cl)ccc2[nH]1)N1CCN(C(=O)c2ccco2)CC1,x,17%,x,x,x,u,7%,5%
CN(C)/N=C/c1ccc(Sc2ccc([N+](=O)[O-])cc2[N+](=O)[O-])o1,u,-5%,21%,-17%,u,4%,-16%,u
Cc1ccc(NC(=O)C2C3CCC(O3)C2C(=O)O)cc1Cl (stereo not given),x,12%,x,x,x,-15%,2%,6%
Cc1n(Cc2ccccc2)c2ccccc2[n+]1Cc1ccccc1,x,-1%,u,x,u,-3%,u,u
CNC(=O)NC(=O)COC(=O)CCc1nc(=O)c2ccccc2n1C,x,x,24%,x,5%,0%,22%,-12%
CCNC(=O)COc1ccc(/C=N/NC(=O)c2cccnc2)cc1OC,x,5%,16%[46.1 µM],x,2%[46.1 µM],0%,5%,-19%
COc1ccc(NC(=O)C2CC2)cc1-n1cnnn1,3%,-1%,24%,1.9%,21%,10%,20%,-21%
CSc1ccc(CCNC(=O)C2CCN(c3nnc(-n4cccc4)s3)CC2)cc1,32µM*,-2%,-2%,-0.3%,x,0%,-3%,-10%
Cc1ccc(NC(=O)c2ccccc2N2C(=O)C3C4C=CC(C5CC45)C3C2=O)cc1C (stereo not given),x,-10%,-25%,x,-21%,-1%,u,7%
COc1cc(C#N)ccc1OC(=O)Cc1cc(OC)c(OC)c(OC)c1,x,-6%,-5%[46.1 µM],x,13%,2%,-16%,17%
O=c1c2nnn(-c3ccc(Br)cc3)c2ncn1Cc1ccccn1,x,x,-16%[46.1 µM],x,u,1%,-18%,-13%
C/C(CC(=O)NC1CCCCC1)=N\NC(=O)c1ccc(Br)cc1,x,0%,27%[46.1 µM],x,x,-2%,2%,-1%
COc1ccc(NC(=S)NN(C)C(=S)Nc2ccc(OC)cc2)cc1,2%,-11%,u,-3.1%,u,-23%,-6%,-24%
CCC(C(=O)N1CCOCC1)n1c2ccccc2c2nc(=O)cc(C)n21 (stereo not given),x,-6%,-5%[46.1 µM],x,27%[46.1 µM],-5%,17%,-7%
O=C(NC1CCCC1)C1CCCN1C(=O)Nc1ccccc1 (stereo not given),8%,2%,-2%,3.7%,9%,-2%,22%,5%
COC(=O)C1CCN(C(=O)c2ccccc2Oc2ccccc2)CC1,7%,7%,19%,-1.4%,6%,2%,4%,0%
CC1CN(C(=O)Cn2c(=O)oc3ccccc32)CC(C)O1 (stereo not given),x,-2%,-4%[46.1 µM],x,-12%,1%,-10%,-2%
O=C(CN1C(=O)C(c2ccc(F)cc2)=NC12CCCCCC2)Nc1ccccc1Cl,-8%,x,u,1.4%,-29%[46.1 µM],x,x,-29%
O=C(NCc1ccccc1)c1nc2ccccc2s1,x,x,-1%,x,-21%,-6%,-17%,36%[activator]
Cc1cccc(OCC(=O)NCc2cc(C)nc3ccccc23)c1,x,x,6%[46.1 µM],x,9%[46.1 µM],0%,-22%,u
C=CCSC1=N/C(=C\c2ccc3c(c2)OCO3)C(=O)S1,-29%,-9%,-29%,-2.4%,-14%,-3%,24%,0%
Cc1cc(C)c(NC(=O)c2ccc(S(=O)(=O)N3CCOCC3)cc2)c(C)c1,-8%,-5%,x,0.3%,x,1%,-1%,0%
O=C(c1cc(Cl)nc2ccccc12)N1CCc2ccccc2C1,x,-1%,x,x,x,0%,3%,-11%
CC1CCN(S(=O)(=O)c2ccc3c(c2)c(=O)c(C(=O)NCc2ccc(Cl)cc2)cn3C)CC1,-4%,x,18%[46.1 µM],-1.8%,6%[46.1 µM],x,x,3%
O=S(=O)(O)c1ccc(O)c2cc(Nc3ccccc3)ccc12,x,x,u,x,23%[46.1 µM],x,8%,0%

# More compounds:
SMILES,Cruzain inh noDet,NS1 function inh,MARV entry inh,Cruzain Triton,Lassa entry inh,SARS PLP yeast,RE007 growth inh,StopGo reporter
O=C(NCCc1ccccc1)c1cc2ncc(Br)cn2n1,-30%,-3%,u,0.1%,11%,1%,0%,0%
CCOc1ccccc1NC(=O)COC(=O)CC(NC(N)=O)c1ccc(Cl)cc1 (stereo not given),x,0%,28%[46.1 µM],x,4%,1%,-3%,-21%
O=C(O)CSc1nnc(-c2cccc(S(=O)(=O)N3CCCCC3)c2)o1,x,x,18%[46.1 µM],x,5%,4%,7%,-9%
CCN1C(=O)CC(N2CCC(C(=O)N3CCCCCC3)CC2)C1=O (stereo not given),x,-1%,x,x,x,-1%,-12%,-5%
COc1ccc(CN2CCn3ncc(C(=O)Nc4cc(C)cc(C)c4)c3C2=O)cc1,-20%,13%,-28%,-2.3%,u,0%,-6%,u
Cc1cc(C(C#N)c2cccc(Cl)c2)n2ncnc2n1 (stereo not given),5%,1%,4%,-6.3%,-17%,1%,9%,-26%
COc1cc(O)c2c(c1)COC2=O,8%,-4%,u,-1.0%,20%,7%,0%,-13%
CCOC(=O)c1cc(C)n(-n2cnnc2)c1C,-2%,-1%,4%,4.5%,2%,2%,13%,-25%
Cc1cc(C)cc(NC(=O)CSc2nc3nc(C)cc(C)n3n2)c1,x,x,u,x,-6%,-1%,23%,-25%
C=CCN1CC(c2nc3ccccc3n2CCOc2ccccc2)CC1=O (stereo not given),12%,u,11%,2.5%,1%,10%,1%,-3%
COc1ccc(CCNCc2ccccc2F)cc1OC,-3%,-3%,8%,-0.3%,3%,3%,-1%,-7%
COc1ccc(C(=O)NCC(c2cccs2)S(=O)(=O)c2cccs2)cc1 (stereo not given),1%,x,x,0.1%,-11%[46.1 µM],x,x,-13%
CN(Cc1ccccc1)S(=O)(=O)c1nnc(NC(=O)c2cccc(Cl)c2)s1,-17%,x,x,-2.3%,12%[46.1 µM],x,x,-23%
COc1ccc(NC(=O)Cn2c(=O)n(-c3ccc(OC)cc3)c(=O)c3sc4ccccc4c32)cc1,1%,x,2%[46.1 µM],4.4%,u,x,x,0%
CC(C)Sc1nnc(-c2c[nH]c3ccccc23)n1C,0%,-51%,x,0.3%,x,-3%,14%,58%[activator]
COn1c(-n2nc(C)cc2C)nc2ccccc2c1=O,0%,4%,3%,3.5%,0%,23%,-12%,-13%
COC(=O)c1c(O)c2ccccc2[nH]c1=O,2%,22%,-16%,-2.0%,-3%,-3%,-4%,16%
N#CCC(=O)N/N=C/c1ccc(OCc2ccccc2)cc1,x,7%,u,x,u,-1%,9%,29%
COC(=O)C1=C(C(=O)OC)C2(OC1c1cccc(F)c1)C(=O)c1ccccc1C2=O (stereo not given),4%,7%,3%,-5.1%,10%,4%,-7%,17%
COc1ccc(C(=O)NNC(=O)CCCCC(=O)NNC(=O)c2ccc(OC)cc2)cc1,x,x,1%,x,-3%,4%,1%,-4%
CC12CCC(=O)N1C(C(=O)Nc1cccc(S(=O)(=O)N3CCCCC3)c1)CS2 (stereo not given),x,x,1%,x,11%,-12%,-6%,-16%
COc1ccc(CCN2C(=O)CC(NCCc3ccc(S(N)(=O)=O)cc3)C2=O)cc1OC (stereo not given),-16%,8%,u,8.7%,0%,-5%,-10%,-5%
CC(C)C[C@H](NC(=O)C1CC(=O)N(c2ccc3c(c2)OCO3)C1)C(=O)NCc1ccco1 (stereo not given in full),x,2%,x,x,x,-4%,-9%,9%
CC(C)(C)OC(=O)NCC1CCN(S(=O)(=O)Cc2ccccc2)CC1,x,1%,x,x,x,-1%,14%,u
O=C(Nc1ccc(Cl)cc1)c1ccc2c(c1)N(Cc1ccccc1)C(=O)c1ccccc1S2(=O)=O,u,x,u,-6.9%,u,x,x,0%

# Following part.
SMILES,Cruzain inh noDet,NS1 function inh,MARV entry inh,Cruzain Triton,Lassa entry inh,SARS PLP yeast,RE007 growth inh,StopGo reporter
O=C1CN(C(=O)c2cccc(S(=O)(=O)N3CCCC3)c2)c2ccccc2N1,x,0%,x,x,x,-4%,4%,-9%
O=C(N/N=C/c1cccnc1)c1ccc(CN2c3cccc4cccc(c34)S2(=O)=O)cc1,x,x,-1%[46.1 µM],x,-13%[46.1 µM],-1%,-9%,-16%
COc1ccc(-c2c(-c3cc(OC)cc(OC)c3)n(C)c3ccc(-c4ccc(OC)nc4)cc23)cc1,x,x,-5%,x,x,-1%,-4%,-15%
O=Cc1cn(-c2ccccc2)nc1-c1ccc(F)cc1,x,-4%,x,x,x,4%,-8%,24%
Cc1ccc(CN2CCCN(Cc3cc(C)ccc3C)S2(=O)=O)cc1,x,-1%,x,x,x,-4%,-12%,-11%
CCOC(=O)C1CCN(c2c(C(=O)c3ccccc3)cnc3ccc(Cl)cc23)CC1,x,-1%,x,x,x,-11%,9%,-10%
NC(=O)CSc1nc2cc(Cl)ccc2c(=O)n1C1CCCCC1,x,5%,u,x,19%[46.1 µM],-3%,-4%,-20%
O=C(NCc1ccccc1F)C1CCCN1C(=O)Nc1ccc(Cl)cc1 (stereo not given),x,-1%,x,x,x,0%,-5%,27%
O=C(O)c1cccc(NC2=C(N3CCOCC3)C(=O)c3ccccc3C2=O)c1,x,0%,11%[46.1 µM],x,12%,-1%,-16%,15%
COc1ccc(C2Nc3cccc4cccc(c34)N2)cc1Br,x,-2%,-1%[46.1 µM],x,-1%,-1%,-1%,-28%
CC(=O)c1ccc(NC(=O)CN2C(=O)c3cccnc3Sc3ccccc32)cc1,-7%,x,x,-7.7%,2%[46.1 µM],x,x,-24%
CCOC(=O)COc1ccccc1/C=C\[N+](=O)[O-],12%,-64%,16µM*,-2.7%,13µM*,-108%,32µM*,14µM*
CCOC(=O)c1cc2c(=O)n3ccccc3nc2n(CC(C)C)c1=NC(=O)COc1ccc(Cl)cc1,1%,x,-3%[46.1 µM],-1.2%,20%[46.1 µM],x,x,-4%
COc1ccc(-c2[nH]ncc2CN2CCCN(c3ccccc3)CC2)c(F)c1,x,6%,u,x,-4%[46.1 µM],0%,-4%,-20%
CCCNC(=O)Cn1c2ccccc2c2nc(=O)cc(C)n21,-5%,-6%,x,6.4%,x,5%,8%,-12%
O=C(Cc1cn2ccsc2n1)Nc1ccccn1,-29%,-2%,-2%,-6.9%,1%,-1%,6%,-5%
Cn1c(SCc2c(F)cccc2Cl)nnc1-c1cccs1,-6%,-10%,u,-5.7%,u,-9%,28%,88%[activator]
CN1C(=O)C(=Cc2coc3ccccc3c2=O)C(=O)N(C)C1=O,x,-32%,x,x,x,-1%,-29%,-9%
